Screening data from PubChem BioAssay.
gsp antagonist = antagonists of gsp mutant (McCune-Albright syndrome); AID 624288; 340,000 tested, 0.4% active; gsp-mutant cells, cAMP HTRF, 30 min; control for the full effect not named in the record; Potency, µM (doses to about 76.9 µM), for the others: at the top dose activity change, negative = inhibition, most hits filed as inhibitors; active = falling curve of any shape with a large fitted effect; inconclusive = falling curve, mostly with a smaller effect; inactive = flat or rising curve; cell line not stated here;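 further: intracellular cAMP measured with PDE inhibitor Ro 20-1724 present during compound exposure; potency means the concentration at half of the fitted maximal effect; on the % scale 0 is the no-effect control and ±100 the full control effect; nearly all actives have a fitted effect of over 65% in size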
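Cells, 2000/well, grown 16–24 h in DMEM 10% FBS with 0.5 mg/ml G418, then compounds plus […] (300 uM addition stock), 30 min at 37C. cAMP read by HTRF (cAMP-d2 and anti-cAMP antibody-K in lysis buffer) after 30 min RT.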
D2 PAM = positive allosteric modulators of human D2 dopamine receptor | 360,000 tested, 0.23% active | P14416 | DiscoveRx D2 beta-arrestin cells, luminescence, 90 min; 100% = 57 uM dopamine signal | potentiation, % (test concentration not listed) | AID 624464; active = potentiation of 50% or more; inconclusive = 30% to 50%; inactive = 30% or less;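 further: compound concentration not given in the record; tested on top of an EC20 dose of dopamine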
Target sequence (P14416 whole entry, looked up): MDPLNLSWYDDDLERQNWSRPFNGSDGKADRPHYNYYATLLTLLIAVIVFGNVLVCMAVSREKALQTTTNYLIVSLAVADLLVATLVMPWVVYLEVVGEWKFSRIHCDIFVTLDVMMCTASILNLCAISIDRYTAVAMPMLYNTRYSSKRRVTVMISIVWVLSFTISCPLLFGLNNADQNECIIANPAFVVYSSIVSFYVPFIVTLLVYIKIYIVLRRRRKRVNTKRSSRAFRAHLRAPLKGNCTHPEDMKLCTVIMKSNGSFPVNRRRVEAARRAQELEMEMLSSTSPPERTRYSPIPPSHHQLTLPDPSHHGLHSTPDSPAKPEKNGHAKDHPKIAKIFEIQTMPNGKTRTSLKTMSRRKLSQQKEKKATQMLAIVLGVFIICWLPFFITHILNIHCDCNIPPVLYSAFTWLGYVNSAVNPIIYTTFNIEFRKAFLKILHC
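PathHunter D2 cells, attached overnight at 37 deg C, received compound in DMSO plus dopamine at EC20 (50 nM final) for 90 min at 37 deg C. Beta-arrestin recruitment was read as luminescence after 1 h with detection reagent at ambient temperature.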
gsp ag = activates gsp, the McCune-Albright syndrome mutation; 340,000 tested, 0.13% active; gsp mutant cells, cAMP HTRF, 30 min; control for the full effect not named in the record; Potency, µM (highest dose often 76.9 µM), for the others: top-dose activation (cAMP increase), most hits filed as activators; active = well fitted activation curve with a large enough effect; inconclusive = small, poorly fitted or top-dose-only effect, or another doubt; inactive = no such curve, though single readings can be large or run the other way; cell line not stated here;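 further: phosphodiesterase inhibitor Ro 20-1724 added with compounds to block cAMP breakdown; potency means the concentration at half of the fitted maximal effect; nearly all actives have a fitted effect of over 60% in size; about a fifth of the inactives were tested at one dose only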
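Cells stably selected in G418 were plated at 2000/well, grown 16-24 hr, then given compounds in DMSO with the PDE inhibitor […] (300 uM solution added) for 30 min at 37C; cAMP was read by HTRF.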
D2 agonist = activates the human D2 dopamine receptor; P14416; DiscoveRx PathHunter D2 beta-arrestin, luminescence, 90 min; 100% = 57 uM dopamine signal; activation, % (concentration not given with the values); 360,000 tested, 0.084% active; AID 624465; in the data active = activation above about 40%; inconclusive = about 15% to 40%; inactive = below about 15%; further: compound concentration not given in the record; the text of the record calls up to 30% inactive
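Agonist mode: compounds alone added to overnight-plated D2 PathHunter cells for 90 min at 37 C, with 57 uM final dopamine (EC100) defining full response. Beta-arrestin recruitment detected by chemiluminescent reagent, read after 1 h at ambient temperature.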
CtBP-E1A blk = CtBP/E1A binding inhibition; AID 651724; activity change, % (test concentration not listed); AlphaScreen GST-E1A/His-CtBP binding, 1536-well; stronger effect = lower value; control for the full effect not named in the record; 340,000 tested, 0.49% active; in the data active means activity change below about -65%; inconclusive means about -30% to -65%; inactive means above about -30%; further: on the % scale 0 is the no-effect control and ±100 the full control effect; compound concentration not given in the record
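Protein mix (5X: 125 nM each GST-E1A, His-CtBP) was incubated with pinned compound 2 h at 37 deg C in dark, in 50 mM Tris pH 8.0 buffer with 300 mM NaCl. Glutathione donor and nickel acceptor beads followed; AlphaScreen signal read after 1 h.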
Six1-Eya2 blk = Six1/Eya2 interaction inhibition | Q15475+O00167 | AlphaScreen GST-Six1/His-Eya2 binding, biochemical; stronger effect = lower value; control for the full effect not named in the record | activity change, % (test concentration not listed) | 360,000 tested, 0.56% active | AID 651725; in the data active = activity change below about -65%; inconclusive = about -30% to -65%; inactive = above about -30%; further: on the % scale 0 is the no-effect control and ±100 the full control effect; compound concentration not given in the record
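AlphaScreen luminescence read after one hour at 37 °C in darkness. Pin-transferred compounds met GST-Six1 and His-Eya2 protein (5X stock 250 nM/500 nM) plus glutathione donor and Ni-chelate acceptor beads (5X, 50 ug/mL).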
* = called active by the depositor; ? = inconclusive; · = not tested or not shown; & = joins results of further samples; [ ] = another dose, or the depositor's remark. Hits appear at their usual frequency. Share with any hit: about 1.4%.

SMILES	gsp antagonist	D2 PAM	gsp ag	D2 agonist	CtBP-E1A blk	Six1-Eya2 blk
O=C(Nc1nnc(-c2ccncc2)o1)c1cccc(N2C(=O)CCC2=O)c1	6%	7	-11%[15.4 µM]	2.0	-3	?
Cc1ccc(S(=O)(=O)N2CCN(C(=O)c3ccccc3Cc3ccccc3)CC2)c(C)c1	-28%	9	0%	-3.5	-3	-5
COc1ccc(-c2c(=O)n(OC)c3ccccc3[n+]2[O-])cc1OC	0%	-7	-6%	-3.2	-7	-28
Cc1ccc(S(=O)(=O)N2CCN(C(=O)Cc3sc(C)nc3-c3ccc(F)cc3)CC2)c(C)c1	-23%	-8	0%	-2.7	5	-5
COc1ccccc1CNC(=O)C1CCCN(S(=O)(=O)c2cccc3cccnc23)C1 (stereo not given)	6%	-2	-41%[inhibitor]	-2.5	0	-4
O=C1CCc2cc(S(=O)(=O)N3CCCCC3)cc3c2N1CC3	-1%	-1	-6%[15.4 µM]	-0.3	6	-2
Cc1ccc2c(c1)c1n[nH]c(=S)nc1n2CCc1ccccc1	-14%	-16	-20%	-1.5	·	0
CC(O)(c1ccc(F)c(F)c1)c1nc(/C=C/c2ccccc2)cs1 (stereo not given)	·	-9	·	12	17	8
CCN(CC(=O)Nc1c(F)cccc1F)C(=O)c1ccc(N2CCCC2)c([N+](=O)[O-])c1	-12%	-25	-20%	-9.0	5	0
CC1(NC(=O)c2cccc(S(=O)(=O)N3CCN(c4ccc(F)cc4)CC3)c2)CCS(=O)(=O)C1 (stereo not given)	-2%	?	-1%	1.3	-11	-2
Cc1ccc(NC(=O)COC(=O)[C@@H]2CC(O)CN2S(=O)(=O)c2ccc3c(c2)OCCO3)cc1 (stereo not given in full)	2%	-13	5%	0.7	-2	-1
COc1cccc(CN2C(=NC(=O)CCC3CCCC3)SC3CS(=O)(=O)CC32)c1 (stereo not given)	-2%	-4	15%	2.1	-4	0
O=[N+]([O-])C(=C1SCCS1)C(=C(Cl)Cl)N1CCCCC1	-23%	-7	-9%	0.4	?	?
C[C@@H](C(=O)NCCc1c[nH]c2ccccc12)[C@H]1C[C@]1(C)[C@H](NC(=O)OCc1ccccc1)c1ccccc1	-22%	-9	-13%	1.0	-6	-7
C(=N\NC1=Nc2cccc3cccc1c23)/c1ccccc1	-21%	-14	-3%[15.4 µM]	1.2	-28	-30
CCn1c(CSc2nc(C)cc(C)n2)nnc1SCC(=O)Nc1nc(-c2ccccc2)cs1	6%	10	?	-8.0&2.8	-7	0
CCN(CC)S(=O)(=O)c1ccc(OC)c(NC(=O)c2ccc(N3CCCC3=O)cc2)c1	-18%	-1	29%	-0.4	5	10
CCOc1ccc(C2=Nn3c(nnc3-c3ccco3)SC2)cc1	-16%	-5	-6%	-0.2	-29	?
Cc1cccc(OCC(=O)NNC(=O)C2CCCCC2C(=O)O)c1 (stereo not given)	12%	0	3%	-3.3	2	11
COc1cc(NC(=O)c2cc3nc(C)cc(C)n3n2)c(OC)cc1Cl	4%	-6	6%	1.5	-16	-20

Entries from the list above containing a halogen:
SMILES	gsp antagonist	D2 PAM	gsp ag	D2 agonist	CtBP-E1A blk	Six1-Eya2 blk
Cc1ccc(S(=O)(=O)N2CCN(C(=O)Cc3sc(C)nc3-c3ccc(F)cc3)CC2)c(C)c1	-23%	-8	0%	-2.7	5	-5
CC(O)(c1ccc(F)c(F)c1)c1nc(/C=C/c2ccccc2)cs1 (stereo not given)	·	-9	·	12	17	8
CCN(CC(=O)Nc1c(F)cccc1F)C(=O)c1ccc(N2CCCC2)c([N+](=O)[O-])c1	-12%	-25	-20%	-9.0	5	0
CC1(NC(=O)c2cccc(S(=O)(=O)N3CCN(c4ccc(F)cc4)CC3)c2)CCS(=O)(=O)C1 (stereo not given)	-2%	?	-1%	1.3	-11	-2
O=[N+]([O-])C(=C1SCCS1)C(=C(Cl)Cl)N1CCCCC1	-23%	-7	-9%	0.4	?	?
COc1cc(NC(=O)c2cc3nc(C)cc(C)n3n2)c(OC)cc1Cl	4%	-6	6%	1.5	-16	-20

Later entries
SMILES	gsp antagonist	D2 PAM	gsp ag	D2 agonist	CtBP-E1A blk	Six1-Eya2 blk
O=C1CC(c2ccc3c(c2)OCO3)c2cc3c(cc2N1)OCCO3 (stereo not given)	-6%[15.4 µM]	4	11%	-0.6	-5	-1
CCCSc1ccc([C@@H]2[C@H]3C(=O)N(CC)C(=O)[C@H]3[C@]3(C(=O)OC)CCCCN23)cc1	-5%	-37	·	-0.9	-3	-10
CCOc1cc(/C=N/n2cnnc2)ccc1OC(=O)c1cccc([N+](=O)[O-])c1	7%	1	-40%[inhibitor]	-1.9	10	4
CC(NC(=O)C(c1ccccc1)c1ccccc1)c1ccccc1 (stereo not given)	-20%	-3	-1%[15.4 µM]	0.4	-9	-4
Cc1ccc(Sc2ccc(CN3CCCCC3)cc2[N+](=O)[O-])cc1	-4%	-9	?	-4.1	·	-8
Cc1cc(C(=O)Nc2cccc(O)c2)co1	7%	-2	-11%	0.0	-4	2
Cc1ccc(S(=O)(=O)N2CCOCC2)cc1C(=O)Nc1ccccn1	-8%	-1	-31%[inhibitor]	2.3	7	12
CN(Cc1ccccc1)c1ccc2nnc(-c3ccccc3)n2n1	13%	-6	0%	3.1	-1	-4
Cc1c(C(=O)NC(=S)Nc2ccc(N3CCOCC3)cc2)cccc1[N+](=O)[O-]	9%	-4	-12%	5.3	0	12
COC(=O)[C@@H](Cc1c[nH]c2ccccc12)NC(=O)C1CCCN(S(=O)(=O)c2ccc(C)cc2)C1 (stereo not given in full)	?	8	-33%[inhibitor]	7.1	-5	-5
CCOc1ncccc1C(=O)OCc1ccccc1	5%	-3	25%	-4.1	-19	8
CC1CCN(CCCCOc2ccc(F)cc2)CC1	6%	-11	5%[15.4 µM]	1.4	3	2
O=C(NNC(=O)c1c(F)cccc1F)c1ccccc1-n1cccc1	-4%	-1	-2%	-1.0	9	-2
Cc1nn(C)cc1C(C(=O)NC1CCCCC1)N(CCc1ccccc1)C(=O)c1cnccn1 (stereo not given)	-10%	-6	-29%	-1.1	0	19
Cc1cc2c(c(=O)o1)C1(C(=O)N(C)c3ccccc31)C(C#N)=C(N)O2 (stereo not given)	3%	6	10%	-1.4	5	1
COc1ccc(CCNCc2cc3ccc(C)cc3[nH]c2=O)cc1OC	8%	-16	30%	-5.4	-1	-3
Cc1cc(C)nc(/N=C2\NC(=O)CC(C(=O)O)N2c2ccc(Cl)cc2)n1 (stereo not given)	1%	-4	6%	1.7	0	-12
COc1ccc(NC2CCCN(C(=O)c3ccncc3)C2)cc1 (stereo not given)	-4%	-5	-9%	-3.0	·	3
COc1cc(C=O)ccc1OCc1ccccc1Br	-3%	-10	0%	-5.3	21	3
Cc1cccc(NC(=S)N2CCN(C(=O)c3ccco3)CC2)c1	-1%	-9	-78%[inhibitor]	0.6	1	-4

Entries above containing a COOH group (two):
SMILES	gsp antagonist	D2 PAM	gsp ag	D2 agonist	CtBP-E1A blk	Six1-Eya2 blk
Cc1cccc(OCC(=O)NNC(=O)C2CCCCC2C(=O)O)c1 (stereo not given)	12%	0	3%	-3.3	2	11
Cc1cc(C)nc(/N=C2\NC(=O)CC(C(=O)O)N2c2ccc(Cl)cc2)n1 (stereo not given)	1%	-4	6%	1.7	0	-12

Going on with the list:
SMILES	gsp antagonist	D2 PAM	gsp ag	D2 agonist	CtBP-E1A blk	Six1-Eya2 blk
CCCCN(C(=O)c1ccccc1Br)C(c1ccc(OC)cc1)c1nc2ccccc2[nH]1 (stereo not given)	·	-6	·	-4.2	0	-14
COc1ccc2c(Cl)c(C(=O)N/N=C/c3ccncc3)sc2c1	3%	-5	-18%[15.4 µM]	-0.6	8	-10
CN(C)CCCNc1nc2cc(-c3ccc(C(=O)N4CCN(C)CC4)cc3)sc2c(=O)n1C	·	-6	·	1.3	3	-2
COc1cc(C(=O)NNC(=O)COc2cccc(F)c2)ccc1OCC(=O)N1CCOCC1	7%	-3	-2%	-2.5	-2	-1
COc1ccc(C(=O)CCN2CCCCCC2)cc1	15%	-14	32%	-1.5	1	8
Cc1ccc(C(=O)Nc2cccc(C(F)(F)F)c2)cc1NC(=O)c1[nH]cnc1C(N)=O	8%	-16	?	-2.8	-3	-5
Cc1ccc(N(O)C(=O)OCCNC(=O)Nc2ccccc2)cc1	2%	-16	-17%	1.8	-1	0
S=C(NCc1ccco1)Nc1ccccn1	2%	-4	-17%	-1.9	1	-11
CCOC(=O)c1ccc(NC(=O)Cn2ccc([N+](=O)[O-])n2)cc1	9%	-7	-44%[inhibitor]	2.6	·	8
Cc1ccc(N(C(=O)c2cnccn2)C(C(=O)NC2CCCCC2)c2ccc(O)cc2)cc1 (stereo not given)	·	-22	-2%[15.4 µM]	-1.2	-7	15
O=C(Nc1ccc(F)cc1)c1ccc(-n2ccnc2)nc1	3%	-3	16%	0.3	-1	3
COc1ccc2c(CC(=O)OCC(=O)Nc3cc(C)c(C)cc3[N+](=O)[O-])coc2c1	3%	0	-27%	1.9	2	-29
O=C(COc1cc2oc(=O)cc(-c3ccccc3)c2cc1Cl)NCCN1CCOCC1	-6%	-1	7%	2.3	-3	0
CC(=O)Nc1ccc(NC(=O)c2ccc3c(c2)C(=O)N(c2ccccc2C)C3=O)cc1	-6%	-6	-4%	-3.4	-3	2
Cc1ccc(C(c2sc3nc(C)nn3c2O)N2CCN(C(=O)c3ccco3)CC2)cc1 (stereo not given)	-3%	0	-1%	0.2	4	0
N#CC1=C(SCc2ccc(C#N)cc2)N=C(N)C(c2nc(-c3ccccc3)cs2)C12CCCCC2 (stereo not given)	-3%	11	-22%	1.1	7	-5
O=P(O)(CCc1ccccc1)C(O)c1ccccc1 (stereo not given)	8%	2	17%	-0.6	13	2
CCCCNC(=O)c1ccc2c(c1)N(CC)C(=O)CS2	-5%	-12	-31%	-0.4	5	1
O=C(CCC(=O)Nc1ccc(F)cc1)N/N=C/c1cccc(Br)c1	-1%	-4	0%	-0.1	-3	3
CCCCC[C@@H]1C=C(C(=O)O)[C@H](c2ccc(Cl)c(Cl)c2)N1S(=O)(=O)c1ccc(C)cc1	-10%	·	·	1.2	4	3
O=C(Nc1ccc(Cl)cc1)N1CCCC(Cn2cccc2)C1 (stereo not given)	1%	-13	-25%[15.4 µM]	-3.6	-13	-5
Cc1ccc(-n2c(C)c([N+](=O)[O-])c3ccc(O)c(CN(C)C)c32)cc1	10%	-15	0%	-1.9	-3	-5
CCOc1ccc(NC(=O)CN2CCCC2c2cccs2)cc1S(=O)(=O)N1CCCC1 (stereo not given)	?	-2	?	-2.9	-2	-1
